# Rce1 inh: yeast Rce1p protease inhibitors, primary screen, biochemical, fluorescence, cell-free homogeneous. CAAX prenyl protease 2 (Saccharomyces cerevisiae (strain ATCC 204508 / S288c)), Q03530. yeast membranes, quenched prenylated peptide cleavage fluorescence. calls only. actives 0.27% (n = 290,000). AID 2563, 2010;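 active = fall in fluorescence gain of 50% or more versus controls, with final raw signal at or below 3038400; inconclusive = same 50% fall but final raw signal above 3038400; inactive = fall in fluorescence gain under 50%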;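 also: plate controls were neutral control wells for no effect and wells lacking membranes for full effect; tested at 10 µM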
# Target sequence (Q03530 whole entry, looked up): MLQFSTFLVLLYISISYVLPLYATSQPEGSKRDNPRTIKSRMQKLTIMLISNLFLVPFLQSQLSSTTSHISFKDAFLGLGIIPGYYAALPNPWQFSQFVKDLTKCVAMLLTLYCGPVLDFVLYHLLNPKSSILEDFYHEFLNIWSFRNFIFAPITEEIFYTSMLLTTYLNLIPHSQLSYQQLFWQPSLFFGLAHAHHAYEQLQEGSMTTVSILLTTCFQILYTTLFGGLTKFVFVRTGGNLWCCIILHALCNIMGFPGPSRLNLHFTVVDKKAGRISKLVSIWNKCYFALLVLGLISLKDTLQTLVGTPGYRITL
# PABP FP inh: PABP poly(A) RNA binding inhibitors, primary screen, biochemical, fluorescence polarization, uHTS. Polyadenylate-binding protein 1 (Homo sapiens), P11940. inhibition, % at 35 µM. actives 1% (n = 290,000);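 active = 50% or more with normal probe brightness, or confirmed in later tests; inconclusive = above 50% with abnormal brightness, or retests that disagree; inactive = below 50% or failed in later tests; about a fifth of its hits are not listed in these tables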;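 also: calls also rest on retests at 20 µM and on dose response follow-up; controls were probe without protein and protein plus probe with vehicle; some compounds called inactive have numbers as strong as hits; many hits fall short of the cut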
# eIF4H inh: human eIF4H binding inhibitors, primary screen, translation initiation inhibitor project, biochemical, uHTS, fluorescence polarization | eIF4H fluorescence polarization binding assay | inhibition, % at 35 µM | actives 0.94% (n = 290,000);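 active = 50% or more with normal probe brightness, or confirmed in later tests; inconclusive = above 50% with abnormal brightness, or retests that disagree; inactive = below 50% or failed in later tests; about a fifth of its hits are not listed in these tables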;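 also: calls also rest on retests at 20 µM and on dose response follow-up; 0% = protein and probe with vehicle and 100% = probe without protein; strong numbers were not always called active; many hits fall short of the cut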
# MT1-MMP act inh: blockers of MT1-MMP proenzyme processing, primary screen, HT1080 RFP-PRO-GFP cells, GFP/RFP fluorescence; actives 0.061% (n = 360,000); GFP/RFP ratio fluorescence, overnight; percent of plate control window, DMSO zero; GFP/RFP ratio change, % at 20 µM;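 active = GFP/RFP ratio change of at least 30% with cell ATP level not reduced by more than half and red fluorescence within 50% of control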; also: strong numbers were not always called active
#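 Material: RFP-PRO-GFP reporter HT1080 cells. Dosing: single-point 20 µM compound, 1% DMSO. Controls: DMSO and RFP-L50D-GFP cell wells. Timing: cells overnight before dosing, compound overnight, 37 °C, 5% CO2. Measure: GFP/RFP fluorescence ratio.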
# CSC inhib: cancer stem cell viability inhibitors, primary screen, luminescence; cancer stem cell-like cells viability; inhibition, % at 7.5 µM; actives 1.1% (n = 300,000); AID 2717, 2010;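 active = mean at 75% or more and at least half the replicates too; inconclusive = mean and replicates disagree; tested in HMLE shEcad cells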;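 also: 0% = median of negative and 100% = median of positive control wells; the first replicate is given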
# Env fusion inh: inhibitors of HIV-1 Env-driven cell-cell fusion, primary screen, HeLa-JRFL effector, CEM21 target cells, luciferase. inhibition, % at 12.3 µM. actives 1.1% (n = 360,000). AID 651610, 2012;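 active = mean replicate inhibition score of at least 50 and every replicate individually at or above 50; inconclusive = only one of the two criteria met; inactive = mean below 50 and not all replicates reaching 50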;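 also: 0% = plate neutral controls and 100% = maraviroc near 300 nM; one replicate is shown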
# UUG fidelity: modulators of yeast start codon fidelity, primary screen, whole organism, S. cerevisiae, single point, plate reader; actives 0.13% (n = 350,000); activity score, % at 18.7 µM; S. cerevisiae UUG-firefly luciferase reporter, luminescence/redox ratio; AID 602363, 2012;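 active = replicate mean at a twofold rise or more, about +100% in these data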;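 also: firefly luciferase made from a UUG start codon reports start codon fidelity; reporter light over untreated wells divided by growth signal over untreated wells; some hits fall short of that in this replicate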
# MT1-MMP act inh RFP: recorded beside MT1-MMP act inh, whose call it bears; RFP signal change, %; measured here: RFP expression control read;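 0 = vehicle wells; hits needed this value within 50% of zero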
# The depositor's hits bear a star; i = inactive; ? = inconclusive; . = not tested or not shown; & = joins results of further samples; [ ] = remark or other dose.
SMILES,Rce1 inh,PABP FP inh,eIF4H inh,MT1-MMP act inh,MT1-MMP act inh RFP,CSC inhib,Env fusion inh,UUG fidelity
CC(C)n1c(SCC(=O)N2CCCCC2)nc2c1c(=O)n(C)c(=O)n2C,.,1,-5,-1,-4,-9,-4,.
Cc1cc(=O)[nH]c(SCC(=O)Nc2ccc(C)c(S(=O)(=O)N3CCCCC3)c2)n1,i,16,4,3,-2,14,-2,-10
COc1ccc(S(=O)(=O)N2CCOCC2)cc1NC(=O)CN(C)CC(=O)Nc1cccc(F)c1,.,.,.,1,2,12,3,10
COCC(C)NC(C(=O)Nc1cccc(C(C)=O)c1)c1ccccc1 (stereo not drawn),i,-6,4,-1,2,-10,-3,.
COc1cc(NC(=O)Cc2ccccc2)cc(OC)c1,i,-1,8,3,0,-2,.,-1
CCCc1nn2c(=O)cc(CSCC(=O)Nc3cccc(OC)c3)nc2s1,i,0,-10,2,2,49,-3,-8
Clc1ccc(-c2nc3ccccn3c2CN2CCCCC2)cc1,i,-6,-9,-4,0,-8,-26,-17
CC(C)n1nc(C(=O)OCC(=O)c2c[nH]c3ccccc23)c2ccccc2c1=O,i,-4,-7,13,-1,-2,16,8
COc1ccc(NC(=O)CNC(=O)Cc2ccccc2)cc1,i,16,-7,-2,0,-20,-7,-8
Cc1nc(N2CCN(C)CC2)c2c(C)c(C(=O)Nc3ccc(C)c(F)c3)sc2n1,i,-7,-2,-3,-9,10,17,-7
Cc1cc(C)n2nc(SCc3nnc(-c4ccccc4Br)o3)nc2n1,i,48,17,-3,-3,-4,3,-5
CC(NC(=O)COc1ccccc1)C(=O)OCC(=O)c1cc2ccccc2o1 (stereo not drawn),i,-5,3,1,10,.,-49,1
CCOC(=O)N1CCN(c2c(N3CCN(c4ccc(F)cc4)CC3)c(=O)c2=O)CC1,i,-6,2,1,-1,-4,3,-3
O=S1(=O)NC(=NCC(c2ccco2)N2CCCCC2)c2ccccc21 (stereo not drawn),i,-2,-2,-2,0,-30,-16,-13
O=C(NCc1ccccc1)Nc1cccn(Cc2ccccc2F)c1=O,i,-13,4,-4,-18,.,4,-14
O=C(Nc1ccc(N2CCOCC2)cc1)c1csc([C@H]2C[C@H](O)[C@@H](CO)O2)n1,.,.,.,3,3,.,-27,-22
O=S(=O)(CC(CN1CCCCC1)N1CCCCC1)c1ccccc1 (stereo not drawn),i,0,-24,-13,-10,27,17,-11
O=C1NN(c2cccc(Br)c2)C(=O)/C1=C\c1ccc(N2CCOCC2)cc1,i,-3,22,-3,1,-9,.,5
O=c1c(Cl)cc(Cl)nn1-c1ccccc1,i,35,0,-4,2,59,-44,.
COc1cccc(NC(=O)c2ccccc2NC(=O)c2ccncc2)c1,.,.,.,-1,0,0,.,-7
Cc1ccc(S(=O)(=O)N2CC3(O)CN(C(=O)OC(C)C)N(C(=O)OC(C)C)CC3(OC(=O)NCc3ccccc3)C2)cc1 (stereo not drawn),.,.,.,0,-1,.,-8,19
CCOC(=O)N1c2ccccc2C=CC1OCC (stereo not drawn),i,0,-11,.,.,-7,.,1
Nc1nnc(SCC(=O)N2CCCCC2)s1,i,14,-2,2,3,7,-12,-23
COc1ccc(OC)c2[nH]c(=O)c(CCNC(=O)C(=O)c3c[nH]c4ccccc34)cc12,i,3,-5,3,-4,12,-5,.
COc1ccc(S(=O)(=O)N2CCN(C)CC2)cc1Br,i,11,-15,-3,3,-8,6,-11
SMILES,Rce1 inh,PABP FP inh,eIF4H inh,MT1-MMP act inh,MT1-MMP act inh RFP,CSC inhib,Env fusion inh,UUG fidelity
CCCN(Cc1cc2ccc(C)cc2[nH]c1=O)C(=O)c1cccnc1,i,2,6,-1,2,-2,-46,0
O=C(N/N=C/c1sc(=O)n(-c2ccccc2)c1Cl)c1ccncc1,i,4,0,-31,-2,3,15,.
O=C(c1cccnc1Cl)N1CCOCC1,i,-1,-6,1,2,-8,-2,.
COc1ccc(C(CC(=O)Nc2cc(C)ccn2)N2Cc3ccccc3C2=O)cc1 (stereo not drawn),i,-1,3,3,1,-12,0,10
COc1ccc(/C=N/NC(=O)c2ccc3c(c2)OCCO3)c(OC)c1,.,-10,-12,-1,4,-9,23,-19
O=C(Nc1ccc(Cl)cc1)c1cc2c(cc1O)[nH]c1ccccc12,?,6,-2,9,-28,116*,62*,-14
CCn1nnnc1SCC(=O)Nc1nc2ccccc2s1,i,-6,-10,-2,-1,.,7,.
COc1cccc(CNC(=O)Cn2ccc3cc(S(=O)(=O)N4CCCC4)ccc32)c1,i,-3,-8,0,-1,8,19,-12
Cc1ccc(NC(=O)C2CC(=O)N(C(C)C)C2)cc1C (stereo not drawn),i,10,-1,2,4,-3,3,-13
C[C@@H](NS(=O)(=O)c1ccc(Br)cc1F)[C@@H](O)c1ccccc1,.,.,.,3,1,.,24,-16
Cc1ccc(/C=N\NC(=O)CC(=O)NCCc2ccccc2)cc1,.,-2,-8,-4,-2,-4,6,-19
Cc1ccc(S(=O)(=O)Nc2ccccc2C(=O)N2CCCCC2C)c(C)c1NS(C)(=O)=O (stereo not drawn),.,-3,1,-1,5,5,2,8
Cc1cc(C)c(S(=O)(=O)N2CCN(c3ccccc3)CC2)c(C)c1,i,8,-5,1,-2,.,8,-3
O=C(CSc1nnc(-c2ccc(Cl)cc2)n1-c1ccccc1)N/N=C/c1ccccc1C(=O)O,i,-15,-6,2,3,-9,4,-5
CC1CCCC(C)N1C(=O)COC(=O)c1ccc(F)c(S(=O)(=O)N2CCOCC2)c1 (stereo not drawn),i,-3,-6,-2,-4,-8,-4,-9
CC(=O)OCc1c(F)c(F)c(-n2nc(C)cc2C)c(F)c1F,i,7,0,4,2,-10,.,-11
Cc1c(Cc2c(Cl)cccc2Cl)c(=O)ccn1C(C)c1ccccc1 (stereo not drawn),.,1,-14,0,-11,.,.,-6
Cc1ccc(NC(=O)CN(C)C(=O)Cc2ccc3c(c2)CCC3)cc1,.,.,.,3,-1,.,-4,-7
CSCC(=O)N1CCCC(CO)(CCCc2ccccc2)C1 (stereo not drawn),i,4,-3,0,-2,-28,4,-8
COc1cccc(/C=N\NC(C)=O)c1OC/C=C/c1ccccc1,i,2,6,1,4,15,3,-22
COCC(C)NC(=O)c1cc2c(ccc3ccccc32)oc1=O (stereo not drawn),i,4,6,2,3,-10,-17,-2
O=C(Nc1cc(Cl)ccc1F)c1ccc(-n2cncn2)c([N+](=O)[O-])c1,i,.,.,3,1,-1,-1,-18
COc1ccc(C(=O)NCCCOc2cccnc2)cc1OC1CCN(C(C)=O)CC1,i,7,-8,3,5,-8,16,-14
CCOC(=O)Oc1ccc(C(=O)OCCCN(C)C)cc1OC,i,-1,-2,1,5,16,.,.
CC(=O)c1ccc(OCC(=O)NCC(c2ccco2)N2CCCCC2)cc1 (stereo not drawn),i,11,3,0,0,.,7,.
SMILES,Rce1 inh,PABP FP inh,eIF4H inh,MT1-MMP act inh,MT1-MMP act inh RFP,CSC inhib,Env fusion inh,UUG fidelity
O=C(CCc1ccccc1)N[C@@H]1c2ccccc2CC[C@@H]1OCc1ccccc1,.,.,.,-6,-7,.,-6,-3
Cc1ccc(Cn2nnc3c(=O)n(Cc4cccc(C)c4)cnc32)cc1,i,6,4,1,-2,1,.,-21
Cc1ccc(C)c(NC(NC(=O)c2cccnc2)C(Cl)(Cl)Cl)c1 (stereo not drawn),.,-13,-1,3,1,-12,1,.
O=C(Nc1ccnc(-c2cccnc2)n1)c1ccccc1Cl,i,2,-11,0,0,-3,.,-6
CCOc1ccccc1NS(=O)(=O)c1cccc2nsnc12,i,4,6,-4,0,-21,.,-25
CCc1ccc(C(=O)NNC(=O)CCN2CCN(Cc3ccccc3)CC2)cc1,i,-6,18,-6,-7,-3,13,.
O=C(Nc1ccccc1)N1CCC(C(=O)N2CCN(S(=O)(=O)c3cccc(F)c3)CC2)CC1,.,3,0,1,-2,-13,-2,9
C[C@H](CO)N1C[C@H](C)[C@@H](CN(C)S(=O)(=O)c2ccccc2)OCc2cnnn2CCCC1=O,.,.,.,0,4,.,12[16.7 µM],-16&0&-2
Cc1cccc(C)c1NC(=O)CN(C)C(=O)CSCc1c(C)noc1C,i,.,.,-2,2,-9,0,.
O=C1CCCC2=C1C(c1ccncc1)Nc1ccccc1N2 (stereo not drawn),i,9,0,-3,-3,-7,.,9
COc1ccc(-c2cc(C(=O)N3CCN(Cc4ccc5c(c4)OCO5)CC3)on2)cc1OC,i,7,-9,1,-4,-13,-2,-17
Cn1c(O)c(N=NC(=O)CNC(=O)c2ccccc2)c2ccccc21,i,8,1,0,-2,0,2,77
COc1ccc(S(=O)(=O)N2CCOCC2)cc1NC(=O)CCOc1ccc(C(C)(C)C)cc1,.,.,.,1,0,.,6,-16
CCCCC(=O)Nc1c(-c2cccc(OC)c2)c(=O)c2ccccc2n1C,i,3,-3,1,2,16,5,-16
CCOC(=O)c1cnc(-n2nc(C)cc2C)nc1Nc1cccc(C(=O)O)c1,.,13,10,6,-1,0,10,-35
COc1ccccc1-n1c(CNC(=O)c2ccco2)nnc1SCC(=O)Nc1cc(C)ccc1C,.,0,12,1,1,0,33,-9
S=C(c1cn(CCOc2cccc3ccccc23)c2ccccc12)N1CCCC1,i,2,24,-13,-19,4,39,-21
C[C@@H](C(=O)Nc1ccc2ccccc2c1)[C@@H]1C[C@@]1(C)[C@@H](NC(=O)c1ccccc1)c1ccccc1,i,-3,-14,-1,-1,23,23,-7
CCOC(=O)c1ccc(S(=O)(=O)Nc2cc(C(=O)O)ccc2Cl)cc1,i,4,10,-3,-2,-5,-4,.
O=[N+]([O-])c1ccc(O)c(-c2cc(C(F)(F)F)nc(-c3ccccc3)n2)c1,i,-2,-5,-1,-27,88*,60*,-10
O=C(c1ccccc1)N1CCC(c2nc3c(nnn3Cc3ccccc3Cl)c(=O)[nH]2)CC1,i,-1,6,2,2,.,.,.
COc1ccccc1CC(=O)Nc1ccc(NC(=O)c2cccs2)cc1,i,3,-2,0,2,11,7,-9
O=[N+]([O-])c1ccc2nc(-c3ccccc3)[nH]c2c1,i,0,5,-2,-5,9,-126,-12
N#C/C(=C/c1cn[nH]c1-c1ccc(Br)cc1)C(=O)O,i,-18,-6,-1,2,-11,7,.
O=C(CCc1ccccc1)NCc1ccccn1,i,0,-6,10,1,3,0,-14
CS/C(N)=N/C(=S)Nc1cccc(Cl)c1,i,4,2,5,0,21,-269,.
COC(CNC(=O)C1CCN(S(=O)(=O)c2cccc3nsnc23)CC1)OC,i,-4,4,4,5,-7,2,-19

# Structural class, the compounds so far containing a COOH group.
SMILES,Rce1 inh,PABP FP inh,eIF4H inh,MT1-MMP act inh,MT1-MMP act inh RFP,CSC inhib,Env fusion inh,UUG fidelity
O=C(CSc1nnc(-c2ccc(Cl)cc2)n1-c1ccccc1)N/N=C/c1ccccc1C(=O)O,i,-15,-6,2,3,-9,4,-5
CCOC(=O)c1cnc(-n2nc(C)cc2C)nc1Nc1cccc(C(=O)O)c1,.,13,10,6,-1,0,10,-35
CCOC(=O)c1ccc(S(=O)(=O)Nc2cc(C(=O)O)ccc2Cl)cc1,i,4,10,-3,-2,-5,-4,.
N#C/C(=C/c1cn[nH]c1-c1ccc(Br)cc1)C(=O)O,i,-18,-6,-1,2,-11,7,.

# Screening results (PubChem)
